PrP UTR inh: inhibition of PrP 5' UTR reporter expression; cell-based PrP 5' UTR mRNA reporter, plate reader; inhibition, % (test concentration not listed); 340,000 compounds, 0.35% hits; AID 488862;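 active = every replicate at 50% or more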;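 note: 0 = median of the neutral control wells; tested in H4 reporter cells; numbers are from one replicate; inactives centre near -14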
ugtP null kill: compounds lethal to S. aureus RN4220 ugtP deletion mutant; OD600 growth, 16 h; some inactives read as strong as hits; growth inhibition, % (no concentration beside the values); 330,000 compounds, 0.54% hits; AID 1259309;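 active = z-score under -3 and OD600 up to 0.15 on both plates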;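 note: plate controls were untreated wells for no effect and antibiotic for full effect; wells of about 80 µL received 100 nL stock; the first replicate is given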
Bead autofluor: counter-screen for toxin protease inhibitors: compound fluorescence | compound autofluorescence counterscreen, microsphere flow cytometry; active compounds read high | fluorescence intensity (no concentration beside the values) | 360,000 compounds, 3.1% hits;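 active = at least 3 SD above the mean of all compounds, about 16000 in these data; inconclusive = too few beads counted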;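 note: 100 nL of 1 mM stock went into each well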
BJeLR lethal: BJeLR cell viability loss; BJeLR (HRASV12) viability, CellTiter-Glo ATP luminescence, 48 h; reference of the scale not given here; inhibition, % (no concentration beside the values); 300,000 compounds, 0.17% hits;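 active = replicate mean above 50%; inconclusive = above 50% but judged a plate artefact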;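 note: 50 nL library stock added to about 25 µL; numbers are from one replicate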
Mtb hypoxia rep: Mtb hypoxia fluorescent reporter inhibition. M. tuberculosis hypoxia-regulated fluorescent reporter, fluorescence. 300,000 compounds, 0.1% hits. fluorescence inhibition, % (test concentration not listed);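 active = 35 to 45% if threefold the growth effect, above 45% if 1.5-fold the growth effect; inactive = the rest, general growth blockers included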;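 note: wells of about 50 µL received 100 nL stock; 0% = vehicle wells and 100% = reference inhibitor wells; whole bacteria with a GFP reporter of the hypoxia response; strong numbers were not always called active; many hits fall short of the cut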
Sa RN4220 lethal: S. aureus RN4220 growth inhibition; OD600, 16 h; inhibition, % (no concentration beside the values); 330,000 compounds, 0.33% hits;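 active = z-score of -3 or lower and OD600 up to 0.18 on both plates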;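 note: plate controls were untreated cells for no effect and reference antibiotic for full effect; stock transfer was 100 nL into about 80 µL; one replicate is shown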
Mtb hypoxia rep growth: recorded beside Mtb hypoxia rep, whose call it bears; growth inhibition, %; measured here: M. tuberculosis growth (absorbance);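 0% = vehicle and 100% = reference antibiotic; read after six days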
Numbers without * were called inactive; ? = inconclusive; / = not tested or not shown. Random draw from the library. About 4% of those tested had a hit in this group.

SMILES	PrP UTR inh	Mtb hypoxia rep	Sa RN4220 lethal	BJeLR lethal	Mtb hypoxia rep growth	ugtP null kill	Bead autofluor
OC(CNC1Cc2ccccc2C1)COc1ccc(Cl)cc1 (configuration not stated)	-14	-1	-8.2	-8	8	-11	4007
CC(=O)C1=C(c2ccccc2)N(C(C)=O)n2c(C)nnc2S1	-12	-12	0.9	-5	-12	10	2492
CC1CCCCC1NC(=O)c1cn(C)c2ccc(S(=O)(=O)N3CCCC3)cc2c1=O (configuration not stated)	-56	7	5.9	-9	11	3	20217*
O=C1NC(=Nc2ccc(Cl)cc2)SC1Cc1cccc(Cl)c1Cl (configuration not stated)	1	4	-3.4	-20	4	-17	2010
CSc1ccccc1OCc1cc(C(=O)NCCn2ccnc2C)no1	2	11	0.3	-8	11	0	6390
N=C1/C(=C/c2ccc(OCc3ccccc3)cc2)C(=O)N=C2SC(CC(=O)N3CCOCC3)=NN12	-9	3	10	16	1	0	6198
CCCC(=O)Nc1ccc2c(c1)C(=O)N(CCC(=O)O)C2=O	-29	0	2.0	-7	3	0	9941
CN(C(=O)OC(C)(C)C)c1ccc(-c2nc3ccccc3s2)cc1	90*	-11	-9.3	17	-1	-6	2965

Profiles from above. Order of values: PrP UTR inh	Mtb hypoxia rep	Sa RN4220 lethal	BJeLR lethal	Mtb hypoxia rep growth	ugtP null kill	Bead autofluor
Entry for CC(=O)C1=C(c2ccccc2)N(C(C)=O)n2c(C)nnc2S1 → -12	-12	0.9	-5	-12	10	2492
Entry for N=C1/C(=C/c2ccc(OCc3ccccc3)cc2)C(=O)N=C2SC(CC(=O)N3CCOCC3)=NN12 → -9	3	10	16	1	0	6198
Entry for CN(C(=O)OC(C)(C)C)c1ccc(-c2nc3ccccc3s2)cc1 → 90*	-11	-9.3	17	-1	-6	2965
Entry for O=C1NC(=Nc2ccc(Cl)cc2)SC1Cc1cccc(Cl)c1Cl (configuration not stated) → 1	4	-3.4	-20	4	-17	2010
Entry for CSc1ccccc1OCc1cc(C(=O)NCCn2ccnc2C)no1 → 2	11	0.3	-8	11	0	6390

Next part.
SMILES	PrP UTR inh	Mtb hypoxia rep	Sa RN4220 lethal	BJeLR lethal	Mtb hypoxia rep growth	ugtP null kill	Bead autofluor
Cc1ccccc1CS(=O)(=O)Cc1ccc(C(=O)N2CCOCC2)o1	-18	/	/	-12	/	/	2513
COc1cccc(C=Nn2nnc3c(cnn3-c3ccccc3)c2=O)c1	/	20	-12	/	8	-7	/
C/C(=N\Nc1cc(C)nc(-c2ccccc2)n1)c1cccc([N+](=O)[O-])c1	-44	/	/	-5	/	/	3406
CC(=O)N1CCc2cc(C(=O)CN3CCN(c4cccc(Cl)c4)CC3)ccc21	0	1	-14	4	16	-11	5346
COc1ccc(S(=O)(=O)NCCN2CCOCC2)c2ccccc12	-9	5	2.2	-5	-10	7	7704
Cc1nc(SCC(=O)c2ccccc2)[nH]c(=O)c1Oc1ccc(Cl)cc1	-7	6	14	4	7	-6	5324
COc1ccc(OCc2n[nH]c(=S)n2Cc2ccco2)cc1	-16	-2	1.7	3	-2	0	4673
Cc1ccc(-n2c(SCC(=O)NN=Cc3ccccc3C(=O)O)nnc2-c2ccccc2)cc1	/	7	7.2	/	6	4	/
O=C(COC(=O)c1ccccc1OCc1ccccc1Cl)NC1CC1	-24	/	2.6	-1	/	8	2653
CCCCC(=O)NC(c1ccc(N(CC)CC)cc1)c1ccc2cccnc2c1O (configuration not stated)	37	/	/	48	/	/	2832
COc1ccc(-c2cc(C(=O)c3c(N)n(C)c(=O)n(C)c3=O)c3ccccc3n2)cc1	-31	2	0.6	1	-2	4	5052
CC1CC(C)CN(CC(=O)c2ccc(OC(F)F)cc2)C1 (configuration not stated)	-18	-5	2.2	-19	8	-1	9117
COc1ccc(S(=O)(=O)N2CCCCCC2)cc1	11	13	8.8	11	14	4	22702*
CN(C)Cc1c(C(=O)N/N=C/c2ccc(OCc3ccc(F)cc3)cc2)nnn1-c1nonc1N	8	/	/	-2	/	/	2970
CC(OC(=O)CN1C(=O)c2ccccc2C1=O)C(=O)N(C)c1ccccc1 (configuration not stated)	-9	1	1.6	1	-1	5	?
O=C1CCCc2cc3c(cc21)CCCC3	-19	17	5.3	/	14	-2	3563
O=C(NCCNC(=O)c1ccccn1)c1ccc(-c2ccccc2)cc1	-7	5	1.0	-8	0	5	/
CN(CC(=O)NCC1CCCO1)S(=O)(=O)c1ccc(Br)cc1 (configuration not stated)	-24	0	-2.3	-4	0	-2	?
CCC(C)C(CNC)NCC(Cc1cccc2ccccc12)NCCc1cccc(C(F)(F)F)c1 (configuration not stated)	/	/	101*	/	/	100*	/
CC(=O)N1CCc2cc(Br)cc(S(=O)(=O)N3CCCCC3)c21	-16	2	4.6	0	3	0	3876
CCOc1ccc(C(=O)NCC(=O)OCC(=O)N2CCCC2)cc1	-4	9	7.3	-4	4	1	4280
CCCCNC(=S)NNC(=O)c1cc(C)on1	/	1	0.6	0	10	-2	11314
O=C(O)COc1ccc(C(NC(=O)c2c(F)cccc2F)NC(=O)c2c(F)cccc2F)cc1	-18	9	2.4	-3	-1	1	3019
CC(CC(=O)Nc1ccc(Cl)cc1)=NNC(=O)C(=O)N1CCCCC1	/	13	1.6	/	6	4	/
CC(C)COC(=O)Cn1cnc2ccc(Br)cc2c1=O	-16	/	0.4	-4	/	-7	3979
NNc1nc2c(-c3ccc(Cl)cc3)nnn2c2ccccc12	-87	-3	2.8	4	-10	-6	4886
CCOc1ccccc1OCCCC(=O)NCCc1ccc(S(N)(=O)=O)cc1	-1	2	4.7	-2	2	2	6338
O=C(Nc1ccccc1C(F)(F)F)C1CCN(C(=O)Cc2ccccc2)CC1	4	4	1.9	1	17	1	5918
COC(=O)/C(C#N)=C1/SC=C(C)N1c1ccccc1	-8	/	1.0	-4	/	-5	4546
OCCN(CCO)CC(O)COCCC12CC3CC(CC(C3)C1)C2 (configuration not stated)	-11	/	/	-1	/	/	2752
COC(=O)CNC(=O)COC(=O)Cc1ccc(Cl)cc1	-21	14	5.8	-4	2	5	4115
CCOC(=O)N1CCN(Cc2nc(-c3cccc(C)c3)no2)CC1	-15	6	3.8	3	11	-2	22782*
CSc1n[nH]c(-c2ccc(C(F)(F)F)cc2)n1	-31	1	6.3	-5	11	9	3574
COc1ccc(NC(=O)CSc2nc3ccccc3c(=O)n2CCCN2CCCCC2)c(OC)c1	-14	19	-0.4	11	17	-3	3193
CCOC(=O)CSc1cc(CS(=O)(=O)c2ccccc2)nc(-c2ccccc2)n1	-11	/	1.5	2	/	0	2690
O=C(COC(=O)c1cccc(Br)c1)NCCc1ccc(F)cc1	-6	-2	-4.6	0	-12	7	2104
CC(=O)N1CCN(c2ccc(NCc3ccco3)cc2)CC1	-15	14	2.8	/	16	-2	2890
COc1ccc(C2CC(=O)C3=C(C2)Nc2ccccc2N(C(C)=O)C3c2ccco2)cc1 (configuration not stated)	-14	-2	9.6	-2	4	12	8104
COc1ccc(CNC(=O)CN(C(=O)CCC(=O)Nc2ccccn2)c2cc(C)ccc2C)cc1	-22	-3	1.1	0	-2	-1	3145
Cc1ccc(/C=C2/SC(=S)N(CC(=O)Nc3ncc(Cc4ccc(C)cc4)s3)C2=O)cc1	-6	/	-0.2	-6	/	4	1973
O=C(/C=C/c1ccc(S(=O)(=O)N2CCOCC2)cc1)N1CCN(c2ccccc2)CC1	-15	10	6.9	-14	-1	7	3377
O=C(O)[C@H](Cc1ccccc1)NC(=O)C(c1ccccc1)(c1ccccc1)c1ccccc1	-22	/	/	-3	/	/	3915
Cc1onc(C(=O)NCc2ccc(F)cc2)c1[N+](=O)[O-]	-8	4	-1.1	3	4	-5	2274
Cc1ccc(CNC(=O)CN2CCN(Cc3ccc(C)cc3)C2=O)cc1	-8	/	0.4	3	/	0	3058
Cc1cc(CN(C)C(=O)c2cc(COc3ccc(C)c(C)c3)on2)n[nH]1	-3	14	6.6	9	2	-6	5993
O=C(CCc1ccccc1Cl)N1CCN(S(=O)(=O)c2ccccc2)CC1	5	-4	9.7	/	3	14	8195
Nc1nnc(-c2ccccc2F)s1	-18	-13	0.4	5	-4	-3	3443
CCOC(=O)C1C2COc3ccc(Br)cc3C2N2C(=O)c3cc(OC)c(OC)cc3NC(=O)[C@@]12C (some centres not stated)	/	-5	4.2	/	7	10	/

4 of the compounds above, with two lines to a compound.
The line under a structure holds: PrP UTR inh | Mtb hypoxia rep | Sa RN4220 lethal | BJeLR lethal | Mtb hypoxia rep growth | ugtP null kill | Bead autofluor
Cc1cc(CN(C)C(=O)c2cc(COc3ccc(C)c(C)c3)on2)n[nH]1
  -3 | 14 | 6.6 | 9 | 2 | -6 | 5993
O=C(CCc1ccccc1Cl)N1CCN(S(=O)(=O)c2ccccc2)CC1
  5 | -4 | 9.7 | / | 3 | 14 | 8195
Nc1nnc(-c2ccccc2F)s1
  -18 | -13 | 0.4 | 5 | -4 | -3 | 3443
CCOC(=O)C1C2COc3ccc(Br)cc3C2N2C(=O)c3cc(OC)c(OC)cc3NC(=O)[C@@]12C (some centres not stated)
  / | -5 | 4.2 | / | 7 | 10 | /

Remaining list, next part.
SMILES	PrP UTR inh	Mtb hypoxia rep	Sa RN4220 lethal	BJeLR lethal	Mtb hypoxia rep growth	ugtP null kill	Bead autofluor
N#C/C(=C\c1ccc2c(c1)OCO2)C(N)=S	/	7	5.1	-4	1	1	5058
C=CCn1c(COc2ccc(F)cc2)nnc1SCC(=O)NC1CCS(=O)(=O)C1 (configuration not stated)	-16	9	3.6	8	-4	8	4105
COc1cc(OC)c(C(=O)OCC(=O)N(Cc2ccccc2)C(C)(C)C)cc1OC	-27	6	5.7	4	5	5	3270
O=C1C2C3C=CC(C3)C2C(=O)N1/N=C/c1cn(Cc2ccccc2)c2ccccc12 (configuration not stated)	24	/	/	1	/	/	4746
O=C(NCc1ccccc1)c1ccc(N2C(=O)C3CCCCC3C2=O)cc1 (configuration not stated)	-7	3	1.0	-8	9	1	1967
COc1ccc(-c2nnn(CC(=O)N3CCN(c4ccccc4OC)CC3)n2)cc1	2	6	4.0	-2	-1	12	3199
Cc1ccc(-c2cc(N)n(-c3ccc(F)cc3)n2)cc1	-68	8	11	1	9	-1	4422
O=C(NCc1cccnc1)Nc1ccc(Cl)c(Cl)c1	-24	-1	-2.8	0	-2	-7	3329
CCCCCCNc1c([N+](=O)[O-])cc(C)cc1[N+](=O)[O-]	-32	7	2.7	7	8	0	9243
COc1cccc2c(=O)c(SC(F)(F)C(F)C(F)(F)F)c(C)[nH]c12 (configuration not stated)	-39	4	3.7	-8	15	4	4455
CCN(c1ccccc1)S(=O)(=O)c1ccc2c(c1)N(C(C)=O)CCS2	-25	0	3.5	0	4	7	5997
CCN1C(=O)[C@H]2[C@@H](c3ccc(-c4cccc(Cl)c4)cc3)N[C@@](C)(C(=O)OC)[C@H]2C1=O	1	/	/	1	/	/	3889
Cc1ccc(NC(=O)CSc2nnc(-c3ccncc3)o2)cc1	-20	6	-0.6	-2	-2	1	13604
COc1ccc(OC)c(C=NNC(=O)c2cc[n+](CC(=O)c3ccccc3)cc2)c1	/	2	-3.2	/	3	1	/
CN1C(=O)[C@H]2[C@@H](/C=C/c3ccccc3)N3C(=O)CN(Cc4ccc(-c5ccccc5)cc4)C(=O)[C@@]3(Cc3ccccc3)[C@H]2C1=O	-10	/	/	9	/	/	3478
CCC(=O)NNc1ncnc2c1cnn2-c1ccccc1	-5	-5	0.8	-11	-2	1	3896
COc1ccc(C(=O)c2sc(Nc3cccc(OC)c3)c(C(=O)Nc3cccc(C)c3C)c2N)cc1	-14	0	-2.3	2	13	-5	?
COc1ccc2[nH]c(=O)c(CN(CCc3ccccc3)Cc3nnnn3CC3CCCO3)cc2c1 (configuration not stated)	-1	-2	-4.3	1	-3	-9	7313
CCC1CCCCN1C(=O)COC(=O)CN(C)S(=O)(=O)c1ccc(NC(C)=O)cc1 (configuration not stated)	-17	3	1.1	-6	-5	1	?

Screening data from PubChem.
